Calb biofilm kill: mixtures killing C. albicans biofilm. C. albicans biofilm persisters + clotrimazole, fluorescence viability; primary screen in compound mixtures of four per well. inhibition, % at 7.6 µM. hit rate 0.02% among 120,000. AID 1242;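 active = inhibition above 30.3% in the primary screen of four-compound pools, then above 30% when the compound was retested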;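 also: compounds exposed to preformed 24 h biofilms for 48 h; the number belongs to the whole pool; some results filed as inactive read as strong as hits; inactives centre near 12; 0% = biofilm with clotrimazole alone and 100% = kill control; retested singly at about 60 µM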
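Incubation: 24 h biofilm formation, then 48 h compound exposure, 37 °C | Material: C. albicans biofilms | Buffer or medium: RPMI/MOPS medium, pH 7.0 | Measured by: 2-h Alamar Blue fluorescence, 535/590 nm excitation/emission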
An asterisk follows results filed as active. An excerpt, so the mix of outcomes need not match the whole.

SMILES | Calb biofilm kill
COCCCNC(=O)c1c[nH]c2ccc(S(=O)(=O)N3CCC4(CC3)OCCO4)cc2c1=O | 18
O=C(NNC(=O)C1CCN(Cc2ccc(F)cc2Cl)CC1)Nc1ccc([N+](=O)[O-])cc1 | 11
CCn1ncc(C2C(C(=O)Nc3ccc(C)cn3)=C(C)NC3=C2C(=O)CCC3)c1C (stereo unspecified) | 19
O=C(O)c1cc(C(=O)C2CCCCC2)c[nH]1 | 3
O=C(CN1C(=O)S/C(=C/C=C/c2ccccc2)C1=O)Nc1ccc(C(=O)O)cc1 | -2
CNC(=O)C1(CC(C)C)C=CCN1C(C)=O (stereo unspecified) | 17
O=C(N/N=C/c1cccnc1)c1cccc(S(=O)(=O)Nc2cccc(Cl)c2)c1 | 4
CC(C)(C)c1ccc(OCC(=O)NNC(=O)c2cccnc2)cc1 | 8
CC(C)C(C)NC(=O)COC(=O)/C=C/c1ccc(S(=O)(=O)N2CCc3ccccc32)cc1 (stereo unspecified) | 9
COc1cccc(-n2c(Cn3nc(C(F)(F)F)cc3C)n[nH]c2=S)c1 | 16
Cc1nc2ccccc2c(=O)n1NC(=O)/C=C/c1ccc(Br)cc1 | 17
COc1ccc(-c2cc(-c3ccccc3)nc(=O)[nH]2)cc1 | 20
CCN(C(=O)COC(=O)/C=C/c1ccc(O)c(OC)c1)C1CCS(=O)(=O)C1 (stereo unspecified) | 13
CCCc1sc(N)nc1-c1ccc(Cl)cc1 | 10
CCOc1ccc(NC(=O)N2CCN(S(C)(=O)=O)CC2)cc1 | -5
CCOC(=O)C1(C(F)(F)F)N=C(c2ccccc2F)OC(N(C)C)=N1 (stereo unspecified) | 22
Cc1n[nH]c(C)c1N1C(=O)c2cccc3c(Br)ccc(c23)C1=O | 13
O=C(Nc1ccc(Oc2ccc(NC(=O)Nc3ccc([N+](=O)[O-])cc3)cc2)cc1)Nc1ccc([N+](=O)[O-])cc1 | 20
C/C(=N\NC(=O)CSc1nc2ccccc2s1)c1ccco1 | 8
CCCCCn1nc(C)c(/C=N\NC(=O)c2cc(C)oc2C)c1C | 18
O=C(O)C(Cc1ccc(O)cc1)N1C(=O)C2CCCCC2C1=O (stereo unspecified) | 14
Cc1oc2ccccc2c1CNC(=O)N(C)C | 5
CCCOP(=O)(c1ccc(N(C)C)cc1)C(Nc1ccccc1)c1ccc(N(C)C)cc1 (stereo unspecified) | 1
O=C(O)C/C(=C\c1cccc(NC(=O)c2ccccc2Cl)c1)c1nc2ccccc2s1 | 8
COc1ccc(N2CCN(Cc3nc4scc(-c5cccs5)c4c(=O)[nH]3)CC2)cc1 | 9

Two entries from above, in markdown:
| SMILES | Calb biofilm kill |
| --- | --- |
| O=C(Nc1ccc(Oc2ccc(NC(=O)Nc3ccc([N+](=O)[O-])cc3)cc2)cc1)Nc1ccc([N+](=O)[O-])cc1 | 20 |
| C/C(=N\NC(=O)CSc1nc2ccccc2s1)c1ccco1 | 8 |

Three entries from above, as labelled records.
compound: COCCCNC(=O)c1c[nH]c2ccc(S(=O)(=O)N3CCC4(CC3)OCCO4)cc2c1=O
  Calb biofilm kill: 18

compound: O=C(NNC(=O)C1CCN(Cc2ccc(F)cc2Cl)CC1)Nc1ccc([N+](=O)[O-])cc1
  Calb biofilm kill: 11

compound: CCn1ncc(C2C(C(=O)Nc3ccc(C)cn3)=C(C)NC3=C2C(=O)CCC3)c1C (stereo unspecified)
  Calb biofilm kill: 19

Additional compounds follow.
SMILES | Calb biofilm kill
CSC(=NC#N)N1CCN(c2c(C)cccc2C)CC1 | 14
Cc1nn(C)cc1CN(C)S(=O)(=O)c1cccc([N+](=O)[O-])c1 | 19
Cc1ccc(CC(=O)N/N=C/c2ccc3c(c2)OCO3)cc1 | 13
O=C(Cc1ccc(Cl)cc1)N/N=C/c1c(Cl)cccc1Cl | 15
O=S(=O)(c1cccc2cccnc12)N1CCN(Cc2ccccc2)CC1 | -6
COc1cc(C(=O)O)ccc1O | 7
CCOC(=O)C1=C(C)N(C)C(=S)NC1c1cccc(Cl)c1Cl (stereo unspecified) | 2
COCCNC(=S)N/N=C(\C)c1cccc([N+](=O)[O-])c1 | 5
O=C1CN(C(=O)COC(=O)CNC(=O)c2ccc(Cl)cc2)c2ccccc2N1 | 17
O=C(NC(=S)Nc1ccc(-c2nc3ncccc3o2)cc1)c1ccccc1F | 8
COc1cccc(-c2cc(C(F)(F)F)nc(-n3ccc([N+](=O)[O-])n3)n2)c1 | -2
O=C(Nc1ccc(N2C(=O)c3cccc4cccc(c34)C2=O)cc1)c1ccc(N2CCCCC2)c([N+](=O)[O-])c1 | 11
O=C(/C=C/c1cccc([N+](=O)[O-])c1)NCCN1C(=O)S/C(=C\c2ccc(F)cc2)C1=O | 12
Cn1cc(Br)c(C(=O)NNC(=O)c2ccccc2)n1 | 14
Cc1ccccc1NC(=O)C(=O)NCCc1ccccc1 | 13
O=[N+]([O-])c1ccc(Nc2c3ccccc3nc3ccccc23)cc1 | 6
Cc1cc2c(cc(C(=O)OC(C(=O)NCC3CCCO3)C(C)C)n2C)o1 (stereo unspecified) | 22
CCOC(=O)NC(N(O)c1cccc(Cl)c1)C(Cl)(Cl)Cl (stereo unspecified) | 10
CC(C1CC2CCC1C2)n1c(-c2cccs2)n[nH]c1=S (stereo unspecified) | 14
COc1ccc(C(=O)Nc2c(Cl)cc(Cl)cc2C(=O)NCc2ccco2)cc1 | 16
COc1ccccc1OCCNC(=O)c1cc(F)c(F)cc1Cl | 16
CCOC(=O)Cc1csc(N/C(=N/S(=O)(=O)c2cc(Br)ccc2OCC)c2ccccc2)n1 | 2
CC(C)NC(=O)CNc1ccc(C(F)(F)F)cc1[N+](=O)[O-] | 13
O=C(O)CC(CC(=O)Nc1ccc(N2CCOCC2)cc1)c1ccccc1 (stereo unspecified) | 23
O=C(Cn1c(=S)[nH]c2ncccc2c1=O)NCCc1ccccc1 | 19
The list goes on.
SMILES | Calb biofilm kill
COC(=O)c1sc2ncn(CC(=O)NCCc3ccc(OC)c(OC)c3)c(=O)c2c1C | 29
Cc1sc2nc(SCC(N)=O)n(-c3ccccc3)c(=O)c2c1C | 11
Cc1c(Cl)c([N+](=O)[O-])nn1CC(=O)NCC(C)C | 12
COC(=O)c1ccccc1NC(=O)Nc1ccc(Cl)cn1 | 13
CCOC(=O)C(NC(=O)N(C)C)(Nc1sc(C)c(CC)c1C#N)C(F)(F)F (stereo unspecified) | 12
CCCCCCCC(=O)NN=C1CCN(Cc2ccccc2)CC1 | 16
COc1ccc(S(=O)(=O)N2CCOCC2)cc1NC(=O)Cc1ccc(Cl)c(Cl)c1 | 8
COc1ccc(C(=O)O)c(OC)n1 | 7
Cc1cccc(C)c1NC(=O)NC1(C(=O)NCCCN2CCOCC2)CCCCC1 | 10
Cc1ccc(-c2ccc(CCC(=O)O)n2NC(N)=S)cc1 | 1
Cc1ccc(NC(=O)CCC(=O)NNS(=O)(=O)c2ccccc2)cc1C | 15
CCOC(=O)c1[nH]c2c(c1-c1ccccc1)C(=O)CC(c1ccc(OCC)cc1)C2 (stereo unspecified) | 20
COc1ccc(C(c2nnnn2Cc2ccccc2)N2CCN(c3nc4ccccc4s3)CC2)cc1OC (stereo unspecified) | 10
CC(CC(=O)Nc1cccc(Cl)c1)c1ccccc1 (stereo unspecified) | 15
COc1ccccc1-n1cnc2c(c1=O)c1nc3ccccc3nc1n2-c1ccc(C)cc1 | 16
CC1(NC(=S)Nc2ccccc2)CCS(=O)(=O)C1 (stereo unspecified) | 12
COc1ccc(Nc2ccc(Cl)cc2)c(C(=O)O)c1 | 15
Cc1c(NC(=O)c2cc3nc(-c4ccc(Cl)cc4)cc(C(F)(F)F)n3n2)c(=O)n(-c2ccccc2)n1C | 10
O=C(Nc1ccccc1)Nc1cccc(Cl)c1Cl | 4
Cc1cc(C(=O)NNC(=O)Nc2ccccc2)no1 | 10
O=c1[nH]c2ccccc2c2ccccc12 | 12
COc1ccccc1CC(=O)Nc1cccc(F)c1 | 12
Cc1ccc(C2=NC3(CCCCCC3)NC2=S)cc1 | -5
COC(=O)c1ccc(NC(=O)CSc2nncc3ccc(OC)c(OC)c23)cc1 | 7
O=C(N/N=C/c1ccccn1)c1cc(-c2ccc(Br)cc2)nc2ccccc12 | 27

Four of these compounds, reformatted:
structure: COc1ccc(S(=O)(=O)N2CCOCC2)cc1NC(=O)Cc1ccc(Cl)c(Cl)c1
  Calb biofilm kill = 8
structure: Cc1ccc(-c2ccc(CCC(=O)O)n2NC(N)=S)cc1
  Calb biofilm kill = 1
structure: COC(=O)c1ccccc1NC(=O)Nc1ccc(Cl)cn1
  Calb biofilm kill = 13
structure: Cc1ccc(C2=NC3(CCCCCC3)NC2=S)cc1
  Calb biofilm kill = -5

Next structures follow.
SMILES | Calb biofilm kill
CC(C)Cn1c(/C=N/Nc2nc3ccccc3[nH]2)nc2ccccc21 | 11
Cc1ccccc1-c1n[nH]c(=S)n1C | 2
CC1=CCC(/C=N\Nc2nnc3c(n2)[nH]c2ccccc23)CC1 (stereo unspecified) | -1
O=C(COC(=O)/C=C/c1cccc(C(F)(F)F)c1)NC(c1ccccc1)c1ccccc1 | 8
c1ccc(-c2ccccc2OCCCN2CCOCC2)cc1 | 12
CCOC(=O)N1CCN(C(=O)C2CCCN(S(=O)(=O)c3ccc(F)cc3)C2)CC1 (stereo unspecified) | 16
O=C(NC1=NCCS1)c1ccc(Cl)c(S(=O)(=O)N2CCOCC2)c1 | 9
C/C(N)=C(/C#N)C(=O)COC(=O)c1ccc(O)cc1 | 2
Cc1ccccc1C(=O)OCCN1CCOCC1 | 14
CN(Cc1ccccc1)C1=CC(=[N+]2CCCCC2)CC(C)(C)C1 | 19
COc1ccc(-c2csc(NC(=O)c3ccc(N4C(=O)CCC4=O)cc3)n2)cc1OC | 14
O=C(NCCN1CCOCC1)c1cccn2c(=O)c3c4c(sc3nc12)CCCC4 | 10
COc1ccc2nc(Nc3nc4ccc(NC(C)=O)cc4s3)sc2c1 | -10
COc1ccc(NC(=O)c2cc3c(=O)n(C)c4ccccc4c3s2)cc1OC | 11
Cc1cccc(OC(=O)c2sc(Cl)nc2C)c1 | 16
NC(=O)c1cc(NC(=O)CCCc2nc3ccccc3s2)cc(C(N)=O)c1 | 15
CCCCc1nc(Cl)c(C#N)c2c1CCCC2 | 18
COc1ccc(N2CCN(CCNC(=O)CCS(=O)(=O)c3cccc4nsnc34)CC2)cc1 | 10
C=CCNC(=S)NNC(=O)CCC(O)COCCC(C)C (stereo unspecified) | 10
CCCN(CCC)CC(O)COc1ccc2c(c1)OCO2 (stereo unspecified) | 1
O=C(CCc1nnc(COc2ccccc2)o1)NCc1ccccc1 | 24
CCN1C(C)=C(C)S/C1=C1\SC(=S)N(NC(C)=O)C1=O | 16
COc1ccc(/C=N/N=C(\N)c2nonc2N)cc1 | 9
COc1ccc(/C=N/Nc2nnc(Cc3ccc(OC)c(OC)c3)c(=O)[nH]2)cc1 | -10
COCc1cc(C)nc(N/N=C/c2ccc(-c3ccc(C(=O)O)c(Cl)c3)o2)c1C#N | -2

A few values from the list.
Under Calb biofilm kill, O=C(CCc1nnc(COc2ccccc2)o1)NCc1ccccc1 is listed with 24
Under Calb biofilm kill, c1ccc(-c2ccccc2OCCCN2CCOCC2)cc1 is listed with 12

(next part)
SMILES | Calb biofilm kill
Cc1ccc(Oc2ncccc2NC(=O)CC2(CC(=O)O)CCCC2)c2c1CCC2 | 30
COc1ccc(NC(=O)C2C3C=CC(C3)C2C(=O)NCc2ccco2)c(OC)c1 (stereo unspecified) | 8
COC(=O)CCCC1=CC2=C(c3ccccc3)C(=O)C(C)(OC(=O)C3CCCC3)C(=O)C2=CN1CCc1c[nH]c2ccccc12 (stereo unspecified) | 9
COc1cc(SC)ccc1C(=O)Nc1ccc(Cl)cn1 | -1
C#CCOCCOCCOCCNc1nc(N2CCOCC2)nc(N2CCN(C(=O)[C@H](CCC(=O)O)n3cc(C(N)[C@H](C)CC)nn3)CC2)n1 (stereo partly specified) | 16
O=C1COc2ccc(C(=O)/C=C/c3ccccc3)cc2N1 | 21
CCC(=NCc1ccc(Cl)c(Cl)c1)c1nc(-c2ccco2)oc1O | 13
CCOC(=O)C1(Cc2ccc(OC)cc2)CCN(C(=O)c2ccoc2C)CC1 | 16
CC(OC(=O)c1cc(=O)[nH]c2ccccc12)C(=O)c1ccccc1 (stereo unspecified) | -4
NS(=O)(=O)c1ccc(CNC(=O)/C=C/c2cccc(Cl)c2)cc1 | 17
Cc1ccc(C(=O)COc2ncnc3cc(Cl)ccc23)cc1 | 16
Cc1ccc(N(CCC(=O)O)S(=O)(=O)c2ccc(C)cc2)cc1 | 11
Cc1nc2ccccc2n1CC(=O)OCC(=O)NCc1ccccc1 | 0
COc1ccc(CN(C)C(C)C(=O)NC2CCCc3ccccc32)cc1 (stereo unspecified) | 11
C=CCOc1c(CNc2ccc(S(N)(=O)=O)cc2)cccc1OC | 9
CC1CC(=O)Nc2ccccc2N1S(=O)(=O)c1cccc(F)c1 (stereo unspecified) | 16
O=C(NCc1ccccc1)c1ncn[nH]1 | 20
O=C(CSc1nc2ccccc2n1-c1ccccc1)Nc1ncc(Cl)cc1Cl | 14
Cc1ccc(Cn2ncc3c(N4CCN(C)CC4)ncnc32)cc1 | 0
CC(C)c1nnc(NC(=O)CSc2nc3ccccc3[nH]2)s1 | 20
Cc1cc(C)n(CCNC(=O)CC2C(=O)NCCN2CC2CCCCC2)n1 (stereo unspecified) | 18
S=c1nc(-c2ccc(Br)cc2)[nH]c2ccccc12 | 3
CCOC(=O)Cc1c(C)nc2c(-c3cccc(Br)c3)cnn2c1C | 10
Cc1cccc(C)c1-n1c(C)nn(Cc2ccc([N+](=O)[O-])cc2)c1=O | 15
c1cncc(CSc2nnc3ccc(-c4cccs4)nn23)c1 | 15
CCCS(=O)(=O)N1CCCC(C(=O)c2cccc(Cl)c2)C1 (stereo unspecified) | 2
CC(=O)c1cnc(-c2ccccc2Cl)s1 | 12
Cc1cc(C)c(-c2cc(NC(=O)COC(=O)c3ccc(CO)cc3)n(-c3ccccc3)n2)cc1C | 13
CCOC(=O)c1cc(C(=O)OCC)c(=O)[nH]c1N1CCCCC1 | 5

Bioassay records deposited in PubChem by PCMD.
